Compound activity: PubChem BioAssay, National Center for Advancing Translational Sciences (NCATS)
Lassa entry inh: blocks Lassa virus binding to or entry into cells | Potency, µM (titrated, usually from 37.9 µM), without a hit: top-dose activity change, negative = inhibition, actives largely listed as inhibitors | Lassa virus pseudotype entry inhibition, cell reporter; control for the full effect not named in the record | AID 540256 | actives 1.2% (n = 300,000); active means well fitted inhibition curve with a large enough effect; inconclusive means small, poorly fitted or top-dose-only effect, or effect the other way; inactive means flat fitted curve, though single readings scatter; tested in HEK293 cells; further: on the % scale 0 is the no-effect control and ±100 the full control effect; nearly all actives have a fitted effect of over 50% in size; luciferase read-out
SARS PLpro yeast: inhibitors of SARS-CoV papain-like protease in yeast. Potency, µM (top dose mostly 32.9 µM), for inactives: at the highest dose activity, positive = growth rescue. AID 485353. S. cerevisiae expressing SARS-CoV PLpro, growth rescue; control for the full effect not named in the record. actives 0.19% (n = 330,000); further: 0% is about no effect; nearly all actives have a fitted effect of over 55% in size; growth read by luminescence after 48 h
Marburg entry inh: inhibitors of Marburg virus binding or cell entry | Marburg virus pseudotyped entry inhibition, cell reporter; control for the full effect not named in the record; about a third of the inactives were read at about 46 µM | Potency, µM (titrated, usually from 37.8 µM), for the others: at the highest dose activity change, negative = inhibition, most hits filed as inhibitors | actives 1.8% (n = 300,000); active = well fitted inhibition curve with a large enough effect; inconclusive = small, poorly fitted or top-dose-only effect, or effect the other way; inactive = flat fitted curve, though single readings scatter; tested in HEK293 cells; about a fifth of its hits are not listed in these tables; further: on the % scale 0 is the no-effect control and ±100 the full control effect; luciferase read-out
Cruzain Triton: cruzain (T. cruzi) inhibition with detergent. actives 0.43% (n = 200,000). purified cruzain, Z-FR-AMC fluorescence, 0.01% Triton. Potency, µM, inactives show max response, negative = inhibition, usual class: inhibitors; active means well fitted curve in the direction sought with a large enough effect; inconclusive means small, poorly fitted or top-dose-only effect, or another doubt; inactive means no such curve, though single readings can be large; an effect the other way counts as inactive or inconclusive;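 further: plate controls were neutral wells for no effect and buffer without enzyme for full effect; nearly all actives have a fitted effect of over 40% in size; top concentration of the series not given in the record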
Target sequence (P25779 123-467 limits assumed): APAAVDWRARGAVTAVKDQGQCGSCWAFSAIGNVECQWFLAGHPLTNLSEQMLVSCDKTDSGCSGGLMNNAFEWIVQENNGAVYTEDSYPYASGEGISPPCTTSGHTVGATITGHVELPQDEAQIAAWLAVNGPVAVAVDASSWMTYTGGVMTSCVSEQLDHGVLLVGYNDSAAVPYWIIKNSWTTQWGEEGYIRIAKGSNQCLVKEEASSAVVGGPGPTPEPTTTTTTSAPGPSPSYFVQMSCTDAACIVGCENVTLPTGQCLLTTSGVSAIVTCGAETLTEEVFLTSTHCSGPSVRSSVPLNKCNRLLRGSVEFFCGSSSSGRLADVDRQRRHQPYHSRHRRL
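Detergent-containing arm of a paired screen for aggregation-based inhibition: 0.01% Triton X-100 present. Cruzain at 1.5 nM cleaved 2 uM Z-FR-AMC at pH 5.5 with 5 mM DTT; AMC fluorescence gain over 60 s measured activity.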
2A StopGo: lowers the luciferase signal of an FMDV 2A StopGo reporter; AID 1159524; human cells with a luciferase reporter of 2A StopGo recoding; control for the full effect not named in the record; Potency, µM (top dose mostly 57.9 µM), without a hit: at the top dose signal change, negative = less light; actives 1.2% (n = 410,000); active = well fitted falling curve with a large enough effect; inconclusive = small, poorly fitted or top-dose-only effect; inactive = no such curve, though single readings can be large or run the other way; tested in HEK293T cells; further: on the % scale 0 is the no-effect control and ±100 the full control effect; nearly all actives have a fitted effect of over 45% in size; luciferase light after 4 h
NS1 inh: influenza NS1 inhibition; S. cerevisiae slowed by influenza A NS1, growth recovery by OD600; Potency, µM (doses to about 46.1 µM), without a hit: top-dose activity, positive = more growth; actives 0.4% (n = 270,000); AID 2326; further: actives are rising curves; nearly all actives have a fitted effect of over 50% in size
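Read-out: OD600 growth recovery of NS1-expressing budding yeast. Cells grown overnight at 30C in -URA glucose medium, washed, resuspended and diluted 1:100 in 2% galactose assay medium, pH 6.0. Same strain lacking NS1 served as positive control.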
Cruzain noTriton: inhibitors of Trypanosoma cruzi cruzain without detergent | P25779 | purified cruzain, Z-FR-AMC fluorescence, no detergent | Potency, µM, inactives show max response, negative = inhibition, actives largely listed as inhibitors | actives 2.3% (n = 200,000); active means well fitted curve in the direction sought with a large enough effect; inconclusive means small, poorly fitted or top-dose-only effect, or another doubt; inactive means no such curve, though single readings can be large; an effect the other way counts as inactive or inconclusive;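 further: plate controls were enzyme without inhibitor for no effect and buffer without enzyme for full effect; nearly all actives have a fitted effect of over 40% in size; top concentration of the series not given in the record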
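Purified cruzain at 1.5 nM, pre-incubated 15 min with compound at room temperature in 100 mM sodium acetate pH 5.5, 5 mM DTT, 0.00005% Triton X-100. Reaction started with 2 uM Z-FR-AMC; AMC fluorescence increase over 60 s gives rate.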
RE007 growth inh: less growth of the S. pombe RE007 Vpr strain; S. pombe RE007 Vpr strain, BacTiter-Glo ATP luminescence, 24 h; control for the full effect not named in the record; Potency, µM (doses to about 92.2 µM), without a hit: top-dose activity change, negative = less growth; actives 0.21% (n = 360,000); AID 651644; active = well fitted falling curve with a large enough effect; inconclusive = small, poorly fitted or top-dose-only effect; inactive = no such curve, though single readings can be large or run the other way;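 further: on the % scale 0 is the no-effect control and ±100 the full control effect; nearly all actives have a fitted effect of over 50% in size; the assay follows cell death caused by Vpr and the record does not say whether a fall means rescue or toxicity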
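Fission yeast strain RE007, carrying one chromosomally integrated HIV-1 vpr copy, was seeded at OD 0.01 in PMG+AL medium with 23 nL pinned compound. After 24 h at 30 °C and 99% humidity, viability was read by BacTiter-Glo luminescence.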
The depositor's hits bear a star; ? = inconclusive; . = no result given; & = joins results of further samples; [ ] = another dose, or the depositor's remark. Unless noted, the call rests on the fitted dose curve; in most records, active means well fitted rising curve with a large enough effect; inconclusive means small, poorly fitted or top-dose-only effect; inactive means no such curve, though single readings can be large or run the other way. Potency means the concentration at half of the fitted maximal effect.

Abbreviations – A = Lassa entry inh; B = SARS PLpro yeast; C = Marburg entry inh; D = Cruzain Triton; E = 2A StopGo; F = NS1 inh; G = Cruzain noTriton; H = RE007 growth inh
O=C(CNC(=O)[C@@H]1Cc2ccccc2CN1)Nc1ccc2c(c1)OCCO2
  A = .	B = -6%	C = .	D = .	E = 1%	F = 6%	G = .	H = -12%
COC(=O)c1ccc(C)c(NC(=O)CN(c2ccc3c(c2)OCO3)S(C)(=O)=O)c1
  A = 4%	B = .	C = 12%	D = -3.4%	E = ?	F = 2%	G = -18%	H = 16%
CCc1nc2ccc(Cc3ccc4nc(CC)[nH]c4c3)cc2[nH]1
  A = .	B = 2%	C = .	D = .	E = 10%	F = -1%	G = .	H = -21%
Cc1ccc(NS(=O)(=O)Cc2ccccc2)cc1Cl
  A = 6%	B = -4%	C = 18%	D = .	E = 59%[activator]	F = -31%	G = .	H = 5%
OCCNc1nc(N2CCOCC2)nc(N2CCOCC2)n1
  A = -3%	B = 0%	C = 17%[46.1 µM]	D = .	E = -7%	F = -3%	G = .	H = -15%
Cn1cnnc1SCC(=O)Nc1cccc(C(=O)O)c1
  A = 1%	B = 6%	C = 8%	D = -5.8%	E = -9%	F = 2%	G = 1%	H = 0%[3.69 µM]
O=C(OCC(=O)N1CCC(Cc2ccccc2)CC1)c1cc(Cl)ccc1O
  A = ?	B = 0%	C = ?	D = .	E = -26%	F = .	G = .	H = 18%
CCOc1cc(S(=O)(=O)n2ccnc2)ccc1Br
  A = -1%	B = 0%	C = 14%[46.1 µM]	D = .	E = 2%	F = .	G = .	H = 7%
CCOc1ccc(/C=N/NC(=O)c2ccc(CSc3nc4ccccc4[nH]3)cc2)cc1
  A = ?	B = -6%	C = ?	D = -6.6%	E = 0%	F = ?	G = ?	H = 7%
O=C(NCCN1CCNCC1)c1ccccn1
  A = 1%	B = 14%	C = -3%	D = -2.7%	E = -17%	F = -6%	G = -6%	H = 2%
CCOc1ccccc1CN1CCNC(=O)C1CC(=O)NCCc1ccccn1 (configuration not stated)
  A = ?	B = -7%	C = 13%[46.1 µM]	D = .	E = 12%	F = -7%	G = .	H = -14%
Cc1ccc(C)c(N2C(=O)CC(Cc3ccc(Br)cc3)C2=O)c1 (configuration not stated)
  A = -2%	B = -11%	C = -7%	D = .	E = ?	F = -14%	G = .	H = -16%
COc1ccc(C2=C(C(C)=O)Sc3nnc(-c4ccc(C)cc4)n3N2C(C)=O)cc1OC
  A = ?	B = .	C = .	D = -0.1%	E = -29%	F = .	G = ?	H = .
O=C(O)c1ccc(S(=O)(=O)N2CCC(NC(=O)C3CCCCC3)CC2)cc1
  A = .	B = 1%	C = 7%[46.1 µM]	D = .	E = 9%	F = 10%	G = .	H = -26%
CCCCOc1ccc(Nc2nc(C)cc(C)c2C#N)cc1
  A = 15%	B = -4%	C = 10%	D = -2.5%	E = .	F = 1%	G = -2%	H = 1%
Cc1cccc(C)c1NC(=S)NCCc1ccc(O)c(O)c1
  A = 1%	B = -1%	C = -7%	D = .	E = 33%[activator]	F = .	G = .	H = -2%
CCCNC(=O)COc1coc(CN2CCN(c3ccccc3OC)CC2)cc1=O
  A = .	B = 1%	C = .	D = .	E = -6%	F = -5%	G = .	H = -11%
S=c1[nH]nc(CSc2nc3ccccc3s2)o1
  A = -2%	B = -4%	C = 0%	D = -2.7%	E = 7%	F = -53%	G = 14%	H = 1%
CC(=O)c1ccccc1N(C(=O)c1ccco1)C(C(=O)NC1CCCC1)c1ccc(C)cc1 (configuration not stated)
  A = -3%	B = -1%	C = -12%[46.1 µM]	D = .	E = 0%	F = 12%	G = .	H = 0%
CCCC(=O)NCCCc1nc2ccccc2n1CCC
  A = ?	B = 6%	C = ?	D = -2.3%	E = 1%	F = -5%	G = -2%	H = 8%
CCCCCCC(=O)Cc1cc(OC)c(OC)cc1C=C(C(=O)OCC)C(=O)OCC
  A = -24%	B = 2%	C = -36%	D = -11%	E = .	F = -4%	G = ?	H = .
NC/C=C/C(=O)O
  A = ?	B = .	C = ?	D = 3.7%&7.9%	E = -2%&7%	F = 1%	G = 3%&3%	H = .
CCN(CC)CCOC(=O)c1cccc2c1-c1ccccc1C2O (configuration not stated)
  A = 4%[46.1 µM]	B = 1%	C = ?	D = .	E = -14%	F = -1%	G = .	H = -9%
Cc1ccc2oc(=O)c3cnn(CC(=O)N4CCCc5ccccc54)c3c2c1
  A = .	B = -2%	C = .	D = 1.5%	E = ?	F = -20%	G = 2%	H = 4%
O=Cc1cc([N+](=O)[O-])ccc1N1CCN(Cc2ccc3c(c2)OCO3)CC1
  A = 7%[46.1 µM]	B = 2%	C = 3%[46.1 µM]	D = .	E = -26%	F = -7%	G = .	H = -10%
S=C(Nc1ccc(Cl)cc1Cl)N1CCCCC1
  A = 0%	B = ?	C = ?	D = 0.8%	E = 68%[activator]	F = 12%	G = -29%	H = -6%
O=C(C(Cc1ccccc1)n1cccc1)N1CCN(c2ncccn2)CC1 (configuration not stated)
  A = .	B = -5%	C = .	D = 1.8%	E = ?	F = -14%	G = 2%	H = 16%
COc1ccc(CSc2nc(N3CCOCC3)c3c(c2C#N)CC(C)(C)OC3)cc1
  A = -9%	B = -5%	C = -20%	D = -5.0%	E = -9%	F = -1%	G = ?	H = 6%
O=C(/C=C/c1ccccc1[N+](=O)[O-])Nc1ccccc1
  A = .	B = -2%	C = .	D = .	E = 10%	F = 0%	G = .	H = -15%
N#CC(c1ccc(Cl)nn1)c1ccccc1Cl (configuration not stated)
  A = 3%	B = -25%	C = 22%	D = 9.2%	E = 59%[activator]	F = 6%	G = -1%	H = 4%
CCOCCCNC(=O)c1cc2c(=O)n3ccccc3nc2s1
  A = -2%&8%[46.1 µM]	B = -1%	C = ?	D = ?	E = 22%&0%	F = -5%	G = 21%	H = 5%
CC(OC(=O)c1ccccc1C(=O)N(C)c1ccccc1)C(=O)Nc1ccc(C(N)=O)cc1 (configuration not stated)
  A = ?	B = -1%	C = 26%	D = .	E = -5%	F = .	G = .	H = 20%
COc1ccc(NC(=O)CN2CCN(CC(=O)Nc3ccc(F)cc3F)CC2)cc1
  A = ?	B = 1%	C = 11%[46.1 µM]	D = .	E = 19%	F = 0%	G = .	H = 4%
Cc1ccc(C(=O)NNC(=O)c2cc3ccccc3cc2O)cc1
  A = -27%	B = 1%	C = 7%	D = .	E = 40%[activator]	F = 1%	G = .	H = 1%
CCS(=O)(=O)NCC(c1cccnc1)N1CCN(c2ccccc2)CC1 (configuration not stated)
  A = .	B = 6%	C = .	D = -8.4%	E = -12%	F = 1%	G = -6%	H = 11%
O=C(NCC(c1ccco1)N1CCCCC1)c1ccc(NS(=O)(=O)c2ccc(F)cc2)cc1 (configuration not stated)
  A = -12%	B = -3%	C = ?	D = .	E = -10%	F = -12%	G = .	H = -2%
O=S(OCCN1CCOCC1)C(c1ccccc1)c1ccccc1 (configuration not stated)
  A = 0%[46.1 µM]	B = .	C = 4%[46.1 µM]	D = .	E = 12%	F = .	G = .	H = 0%
CCOCc1nnc(NC(=O)c2cc(OC)c(OC)c(OC)c2)s1
  A = ?	B = 1%	C = -4%[46.1 µM]	D = .	E = 0%	F = 4%	G = .	H = 3%
O=C(c1ccc(F)cc1)N1CCN(c2ccc(N3CCOCC3)nn2)CC1
  A = .	B = 2%	C = .	D = .	E = -20%	F = -1%	G = .	H = -10%
Cc1cc(Cl)ccc1OCC(=O)NCc1ccncc1
  A = 17%	B = 2%	C = -15%	D = 6.9%	E = .	F = -19%	G = -2%	H = -14%

The final three compounds of the part before open the next one:
Abbreviations – A = Lassa entry inh; B = SARS PLpro yeast; C = Marburg entry inh; D = Cruzain Triton; E = 2A StopGo; F = NS1 inh; G = Cruzain noTriton; H = RE007 growth inh
CCOCc1nnc(NC(=O)c2cc(OC)c(OC)c(OC)c2)s1
  A = ?	B = 1%	C = -4%[46.1 µM]	D = .	E = 0%	F = 4%	G = .	H = 3%
O=C(c1ccc(F)cc1)N1CCN(c2ccc(N3CCOCC3)nn2)CC1
  A = .	B = 2%	C = .	D = .	E = -20%	F = -1%	G = .	H = -10%
Cc1cc(Cl)ccc1OCC(=O)NCc1ccncc1
  A = 17%	B = 2%	C = -15%	D = 6.9%	E = .	F = -19%	G = -2%	H = -14%
CC(=O)Nc1nc2ccccc2n1CCOc1ccccc1
  A = ?	B = 5%	C = ?	D = -0.1%	E = -18%	F = -11%	G = -7%	H = -5%
Cc1ccnc(NS(=O)(=O)c2ccc(NC(=O)c3c(-c4ccccc4Cl)noc3C)cc2)n1
  A = 1%	B = 25%	C = 11%	D = -4.2%	E = 21%	F = 13%	G = 13%	H = 2%
CC(C)c1nc(SCC(=O)Nc2ccc(N3CCOCC3)cc2)c2ccccc2n1
  A = ?	B = -4%	C = -23%	D = -1.7%	E = ?	F = 9%	G = ?	H = 5%
O=C(NCC(c1ccco1)N1CCN(c2ccccc2F)CC1)c1ccco1 (configuration not stated)
  A = 0%	B = -5%	C = 16%	D = .	E = -15%	F = .	G = .	H = 9%
CC(C)c1ccc(NC(=O)NC(C)c2ccc3c(c2)OCO3)cc1 (configuration not stated)
  A = 16%	B = -6%	C = 0%	D = .	E = -6%	F = 0%	G = .	H = 9%
O=C(NCc1ccco1)C(c1cccs1)N(C(=O)Cc1cccs1)c1ccccc1 (configuration not stated)
  A = ?	B = -5%	C = ?	D = -1.8%	E = 6%	F = -12%	G = -4%	H = 12%
CCCC(=O)Nc1ccc(C(=O)Nc2nnc(COCC)s2)cc1
  A = 5%	B = 10%	C = 6%	D = 0.1%	E = -6%	F = 0%	G = 2%	H = 11%
